TRPML1 inh = qHTS for Inhibitors of the Human Mucolipin Transient Receptor Potential 1 (TRPML1); Mucolipin-1 (Homo sapiens), Q9GZU1; TRPML1-inducible cells, Ca2+ dye fluorescence, FDSS; active compounds read low; inhibition of EC80 agonist-evoked calcium signal; activity change, negative = inhibition, % (concentration not given with the values); actives 0.02% (n = 390,000); in the data active means activity change below about -50%; inconclusive means about -30% to -50%; inactive means above about -30%;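 further: stimulus is agonist 54-4 at its EC80 concentration; on the % scale 0 is the no-effect control and ±100 the full control effect; the text of the record puts the active cut at -80%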
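Calcium fluorescence in TRPML1-DL cells induced overnight with Tet: a 110 s read after compound pin addition, then a 110 s antagonist read after challenge with 54-4 at 4 uM final (EC80).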
Menin MLL FP FL = qHTS Assay for Inhibitors Targeting the Menin-MLL Interaction in MLL Related Leukemias: Competition With Fluorescein Labeled MLL-derived Peptide | Fluorescence polarization, fluorescein-MLL peptide displacement from menin | FP activity change, % at 61.4 µM | 290,000 tested, under 10 active; inconclusive = falling polarisation curve, or a change in total fluorescence; inactive = total fluorescence flat and polarisation flat or rising; no compound was filed as active; the % refers to the polarisation; negative = inhibition;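 further: % of control where 0% means no effect; inhibitors lower the polarisation; unlabelled MLL peptide was the positive control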
ClpP mod = qHTS Assay for Activators of ClpP; ATP-dependent Clp protease proteolytic subunit (Bacillus subtilis (strain 168)), P80244; purified B. subtilis ClpP, FRET peptide cleavage, 20 min; Potency, µM (titrated, usually from 57.5 µM), without a hit: top-dose activity change, negative = active; actives 1.9% (n = 340,000); AID 651965, 2013; active = well fitted falling curve with a large enough effect; inconclusive = small, poorly fitted or top-dose-only effect; inactive = no such curve, though single readings can be large or run the other way; further: potency means the concentration at half of the fitted maximal effect; the source files actives as falling curves though it sought activators and does not explain the sign; nearly all actives have a fitted effect of over 65% in size; many hits overshoot -100%
Target sequence (P80244 whole entry, looked up): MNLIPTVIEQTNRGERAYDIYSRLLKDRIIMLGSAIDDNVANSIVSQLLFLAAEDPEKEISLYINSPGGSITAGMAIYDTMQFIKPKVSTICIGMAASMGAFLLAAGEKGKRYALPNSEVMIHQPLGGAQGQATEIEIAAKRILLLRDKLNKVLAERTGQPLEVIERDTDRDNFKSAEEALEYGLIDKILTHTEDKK
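FRET quenching reversal measured ClpP activation: 10 microg/mL B. subtilis ClpP at pH 8 with the FRET-FV decapeptide, read at 430 nm after 320 nm excitation. The 20-min minus 0-min signal was scaled between DMSO/no-enzyme wells and ADEP (5.8 microM final).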
Sfp PPTase inh = qHTS Assay for Inhibitors of Bacillus subtilis Sfp phosphopantetheinyl transferase (PPTase) | 4'-phosphopantetheinyl transferase ffp (Bacillus subtilis), Q9F4F7 | Potency, µM, for the others: max response, negative = inhibition, actives largely listed as inhibitors | AID 1490, 2009 | actives 3.5% (n = 310,000) | Biochemical Sfp PPTase activity, qHTS; active means well fitted inhibition curve with a large enough effect; inconclusive means small, poorly fitted or top-dose-only effect, or another doubt; inactive means no such curve, though single readings can be large or run the other way;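 further: the enzyme is Sfp with the accession as filed and its product quenches rhodamine fluorescence; potency means the concentration at half of the fitted maximal effect; 0% = enzyme reaction without inhibitor and -100% = no enzyme wells; top concentration of the series not given in the record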
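After 15 min at room temperature with compound, 15 nM Sfp received 5 uM rhodamine-CoA plus 12.5 uM BHQ-2-ybbR (50 mM Hepes pH 7.6, 10 mM MgCl2). Rate came from the fluorescence difference over 30 min, ex 525/em 598 nm.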
TRPML1 ag = qHTS for Agonists of the Human Mucolipin Transient Receptor Potential 1 (TRPML1) | activation, % (test concentration not listed) | Mucolipin-1 (Homo sapiens), Q9GZU1 | TRPML1-expressing cells, Ca2+ dye fluorescence, FDSS; host cell line not named in the record; reference of the full effect not given here | actives 0.12% (n = 410,000); in the data active = activation above about 50%; inconclusive = about 30% to 50%; inactive = below about 30%; further: 0% is about no effect; the text of the record puts the active cut at 80%
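TRPML1-DL cells, Tet-induced overnight (~16 h, 37 degrees C), loaded 45-90 min at room temperature with Ca8 no-wash calcium dye plus quencher. FDSS fluorescence: 10 s baseline, compound pin-transfer, 110 s agonist read, then EC80 54-4 (4uM final) and 110 s antagonist read.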
PINK1 expr mod = A Quantitative High throughput Screen to Identify Chemical Modulators of PINK1 Expression; PINK1 immunofluorescence, high-content cytometry, 24 h; Potency, µM (doses to about 76.6 µM), for inactives: at the highest dose activation (PINK1 increase), actives largely listed as activators; actives 0.2% (n = 410,000); active = well fitted activation curve with a large enough effect; inconclusive = small, poorly fitted or top-dose-only effect; inactive = flat fitted curve, though single readings scatter; cell line not stated here;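 further: potency means the concentration at half of the fitted maximal effect; % of control where 0% means no effect; nearly all actives have a fitted effect of over 65% in size; a mitochondrial uncoupler was the plate control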
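Fluorescence from anti-PINK1 antibody, together with nuclear and cell stains, was scanned on a laser-scanning cytometer. Before staining, stable-line cells were incubated 24 hours with compounds at 5 concentrations; primary antibody 12 h at 10 degrees C.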
TRPV1 PAM = HTS Assay for Compounds that Act as Potentiators of the Vanilloid Receptor 1; potentiation, % at 8.33 µM; Transient receptor potential cation channel subfamily V member 1 (Homo sapiens), Q8NER1; actives 0.02% (n = 320,000); TRPV1-expressing cells, Fluo-8 calcium influx, capsaicin EC20 potentiation; host cell line not named in the record; control for the full effect not named in the record; active means potentiation above 80%; inconclusive means 30% to 80%; inactive means below 30%; further: 0% is about no effect
Target sequence (Q8NER1 whole entry, looked up): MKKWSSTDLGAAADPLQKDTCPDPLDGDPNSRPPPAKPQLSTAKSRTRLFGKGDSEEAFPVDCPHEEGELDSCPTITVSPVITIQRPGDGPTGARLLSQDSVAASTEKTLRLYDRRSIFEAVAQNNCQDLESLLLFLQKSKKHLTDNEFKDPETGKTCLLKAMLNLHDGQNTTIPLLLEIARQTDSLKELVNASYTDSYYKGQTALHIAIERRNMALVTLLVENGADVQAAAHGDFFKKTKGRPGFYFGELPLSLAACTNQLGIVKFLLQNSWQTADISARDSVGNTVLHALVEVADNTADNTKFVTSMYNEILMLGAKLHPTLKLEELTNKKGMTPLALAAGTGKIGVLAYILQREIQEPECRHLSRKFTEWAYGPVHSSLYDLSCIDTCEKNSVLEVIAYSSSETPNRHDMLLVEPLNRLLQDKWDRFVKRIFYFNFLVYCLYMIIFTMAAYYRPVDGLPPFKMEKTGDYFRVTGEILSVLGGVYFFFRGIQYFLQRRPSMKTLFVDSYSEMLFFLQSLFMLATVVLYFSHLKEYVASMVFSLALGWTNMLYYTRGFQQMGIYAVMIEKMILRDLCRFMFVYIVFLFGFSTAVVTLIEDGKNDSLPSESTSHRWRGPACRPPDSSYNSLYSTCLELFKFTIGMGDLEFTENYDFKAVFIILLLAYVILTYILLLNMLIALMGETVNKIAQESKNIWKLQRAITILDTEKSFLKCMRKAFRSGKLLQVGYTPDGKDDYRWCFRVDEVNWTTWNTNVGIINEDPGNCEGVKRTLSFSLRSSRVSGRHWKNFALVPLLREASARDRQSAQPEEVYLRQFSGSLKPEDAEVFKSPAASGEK
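TRPV1-expressing cells were cultured overnight at 35.5C and loaded with Fluo-8 calcium dye for 40 to 90 min at room temperature. After a 10 s baseline, compound was added and calcium influx was read kinetically for 3 min (ex 480/em 520 nm).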
* = called active by the depositor; ? = inconclusive; . = not tested or not shown; [ ] = remark or other dose.

SMILES	TRPML1 inh	Menin MLL FP FL	ClpP mod	Sfp PPTase inh	TRPML1 ag	PINK1 expr mod	TRPV1 PAM
COc1cccc(NCc2cc(=O)oc3cc(-c4ccccc4)c(O)cc23)c1	-8	6.1	2.8%	7%	0.6	12%	1
O=C(NCCSc1ccccc1)c1ccc(Br)cc1	-1	.	-1.7%	2%	0.9	0.9%	-3
COc1ccc2[nH]c(C(=O)O)c(NS(=O)(=O)c3ccc(F)cc3)c2c1	45	-1.4	-12%	10%	0.2	0.3%	-3
CCc1ccccc1NC(=S)N1CCNC(=O)C1CC(=O)OC (stereo not drawn)	-6	4.0	.	10%	0.1	0.2%	2
Cc1cc(C(=O)COC(=O)c2n[nH]c(=O)c3ccccc23)c(C)n1C	-15	.	-1.5%	.	-1.3	1.1%	12
CCCNC(=O)NC(=O)CSc1nnc(-c2ccncc2)n1CC	14	-0.4	-7.2%	11%	3.9	-1.3%[38.3 µM]	-4
Cc1cc(N)ccc1N1CCCC1	-20	2.3	-2.2%	14µM*	-0.7	2.6%	-17
COc1ccccc1/C(C)=N/Oc1cc(N)cc([N+](=O)[O-])c1	-6	.	0.7%	.	4.3	3.9%	2
O=C(Cc1csc(N2CCOCC2)n1)N/N=C/c1ccc(Cl)cc1Cl	9	4.0	0.4%	14%	1.7	2.5%	-7
O=C(Cc1ccc(Cl)cc1)Nc1cccc(C(=O)Nc2ccccc2C(=O)O)c1	-9	0.0	-3.5%	22%	-0.8	-1.0%	20
Cc1ccc2nc(-c3cccnc3)cc(C(=O)Nc3ccc(F)cc3C)c2c1	-1	0.2	-1.3%	0%	1.6	12%	-5
COC(=O)C(NC(=O)c1ccccc1C(=O)O)c1ccc2ccccc2c1 (stereo not drawn)	6	2.9	.	7%	0.1	0.2%	10
Cc1cc(NC(=O)CSc2nnc(-c3ccncc3)n2C)n(-c2ccccc2)n1	-8	-1.7	-1.4%	19%	-0.6	-0.5%	-10
COc1ccc(NC(=O)c2cc(-c3ccc(C)o3)nc3ccccc23)cc1OC	3	2.1	3.5µM*	22µM*	1.1	3.3%	4
Cc1cc2[nH]ncc2cc1NC(N)=S	-4	-0.6	.	-11%	0.2	-0.1%	6
CN(C)S(=O)(=O)c1cccc(C(=O)NCC(=O)NC2CCN(Cc3ccccc3)CC2)c1	18	0.3	.	18%	0.1	-2.4%	0
Cc1ccc2onc(CNC(=O)NCc3ccc(Cl)cc3)c2c1	3	.	-0.5%	.	0.8	-1.0%	.
COc1cccc(C(=O)C2CCCN(C(=O)CCC3=NNC(=O)CC3)C2)c1 (stereo not drawn)	-26	1.9	-6.2%	-7%	0.0	-1.7%	-4
O=c1cc(N=Nc2ccc(Cl)cc2)[nH]c(=O)[nH]1	-6	-17	.	-27%	2.7	-3.8%	-1
COC(=O)C1=C(N)Oc2c(oc(CO)cc2=O)C1c1c(F)cccc1Cl (stereo not drawn)	-7	0.0	.	?	-0.5	2.6%	-9

In another format: results already given
Cc1ccc2nc(-c3cccnc3)cc(C(=O)Nc3ccc(F)cc3C)c2c1
  TRPML1 inh = -1
  Menin MLL FP FL = 0.2
  ClpP mod = -1.3%
  Sfp PPTase inh = 0%
  TRPML1 ag = 1.6
  PINK1 expr mod = 12%
  TRPV1 PAM = -5
COC(=O)C(NC(=O)c1ccccc1C(=O)O)c1ccc2ccccc2c1 (stereo not drawn)
  TRPML1 inh = 6
  Menin MLL FP FL = 2.9
  ClpP mod = .
  Sfp PPTase inh = 7%
  TRPML1 ag = 0.1
  PINK1 expr mod = 0.2%
  TRPV1 PAM = 10
Cc1cc(NC(=O)CSc2nnc(-c3ccncc3)n2C)n(-c2ccccc2)n1
  TRPML1 inh = -8
  Menin MLL FP FL = -1.7
  ClpP mod = -1.4%
  Sfp PPTase inh = 19%
  TRPML1 ag = -0.6
  PINK1 expr mod = -0.5%
  TRPV1 PAM = -10

Following part:
SMILES	TRPML1 inh	Menin MLL FP FL	ClpP mod	Sfp PPTase inh	TRPML1 ag	PINK1 expr mod	TRPV1 PAM
CN(Cc1ccccc1)C(=O)COc1cc(=O)n(C)c2ccccc12	-3	3.0	-0.9%	10%	-0.6	-0.7%	-8
C/C(=N/NC(=O)CNC(=O)Cc1ccccc1)c1ccc(Cl)cc1	16	12	.	-24%	-0.6	1.7%	4
O=C(CN(Cc1ccccc1)S(=O)(=O)c1ccc(F)cc1)NCCC1=CCCCC1	53	6.7	0.7%	20%	3.7	-2.2%	-18
Cc1ccc(S(=O)(=O)N2CCC(C(=O)N/N=C/c3cccnc3)CC2)cc1	1	0.7	1.0%	10%	-1.3	1.5%	10
COCCCN1C(=O)c2ccc(C(=O)N3CCN(c4ccc(OC)cc4)CC3)cc2C1=O	-12	-10	1.0%	16%	0.8	1.1%	-9
COc1cccc(-n2c(=O)c3c(C)c(C(=O)N(C)C)sc3n(CC(=O)NCC3CCCO3)c2=O)c1 (stereo not drawn)	11	3.7	.	18%	-0.4	1.8%	4
O=C(N/N=C/c1ccc(F)cc1)c1cc(-c2ccc3c(c2)OCO3)n[nH]1	-9	-1.2	.	?	0.9	3.2%	-4
CCCCCCn1cnc2c(oc3nc4c(cc32)CCCC4)c1=O	-17	4.9	-19%	6%	1.2	4.6%	0
CCCCOC(=O)C1[C@H]2C(=O)N(c3ccccc3CC)C[C@]23C=C[C@H]1O3 (stereo partly drawn)	19	1.8	-0.2%	-7%	0.3	-1.2%	-7
O=C(NC(NCCCN1CCOCC1)(C(F)(F)F)C(F)(F)F)C1CCCCC1	-2	-1.5	-2.1%	27%	-0.5	2.5%	-5
Nc1ccc(-c2nc3ccc(N)cc3o2)cc1	-2	0.1	4.8%	9%	-0.7	1.1%	-4
CCC(C)(C)NC(=O)C(C(C)C)N(CC1CCCO1)C(=O)CNS(=O)(=O)c1ccccc1 (stereo not drawn)	-10	.	.	14%	-0.9	0.3%	0
Cc1ccc(-c2nnc(SCC(=O)N3CCc4ccccc43)o2)cc1	32	.	-3.5%	.	0.2	-1.5%	.
C[C@@H]1C(=O)O[C@H](C)[C@H]1C[C@@H](O)[C@](C)(O)C1CC[C@@]2(O)C3=CC(=O)[C@@H]4C[C@@H](O)[C@@H](O)C[C@]4(C)C3CC[C@]12C (stereo partly drawn)	-2	.	-4.2%	.	1.1	-0.7%	.
COc1ccc(COc2ccccc2C(=O)Nc2ccccn2)cc1[N+](=O)[O-]	-1	6.2	-8.6%	6%	0.0	-0.5%	-6
Cc1ccc(-c2cc(C(=O)N3CC4(C)CC3CC(C)(C)C4)no2)cc1 (stereo not drawn)	44	.	0.1%	.	0.7	7.2%	.
O=C(O)CN1C(=O)/C(=C\c2ccccc2OCc2ccc(F)cc2)SC1=S	-6	-0.4	-2.0%	4%	1.9	-2.2%	0
COc1ccccc1NC(=S)NNC(=O)c1ccccc1	-22	.	0.3%	.	-0.3	-1.4%	.
CC(C)CCNC(=O)CCCCn1c(=O)[nH]c2ccsc2c1=O	-2	-1.7	.	11%	-0.8	0.5%	1
CC1(CC(=O)N/N=C/c2cc3c(cc2Br)OCO3)OCCO1	-3	-5.9	.	5%	1.0	0.3%	29
COc1cc(C(=O)NCCN2CCCC2)cc(OC)c1OC	-25	-2.4	-9.3%	6%	-0.6	-0.5%	2
O=C1CC(Sc2ncccn2)C(=O)N1c1ccccc1 (stereo not drawn)	-4	1.0	0.2%	-3%	1.2	-1.1%	0
Cc1ccc(NC(=O)CSCC(=O)Nc2cccc(S(=O)(=O)N3CCCCCC3)c2)cc1	-17	.	-2.3%	.	1.2	1.7%	10
Cc1ccc(C(CNS(=O)(=O)c2ccc(F)cc2C)N2CCN(C)CC2)cc1 (stereo not drawn)	-5	.	.	.	3.8	1.6%	4
O=C(O)CC(CC(=O)O)c1ccsc1	12	.	-1.2%	.	-0.7	-0.1%	1
COc1cc(C(=O)Nc2ccc3c(c2)C(=O)N(CCC(=O)O)C3=O)cc(OC)c1OC	14	2.5	0.8%	-4%	0.6	-3.5%	-7
Cc1ccccc1C(=O)c1c[nH]c(C(=O)NCCc2ccccn2)c1	-4	-6.4	.	10%	0.7	0.6%	11
O=C(c1[nH]c(C(F)(F)F)nc1-c1ccccc1)N1CCC(Cc2ccccc2)CC1	.	.	-0.1%	.	0.1	2.0%	.
O=C1OC(CN2CCOCC2)CN1N=Cc1ccc([N+](=O)[O-])o1 (stereo not drawn)	-8	.	-0.2%	.	0.9	-0.5%	?
CCOC(=O)C1(Cc2ccccc2)CCN(Cc2cnn(C(C)C)c2)CC1	0	4.2	.	5%	0.4	2.0%	0
Cc1ccc(NC(=O)CSc2nnnn2-c2cccnc2)c(C)c1	-11	-0.7	.	5%	0.1	-0.9%	0
Nc1ccccc1S(=O)(=O)C(F)F	11	2.4	0.9%	12%	-1.1	0.3%	7
O=C(NC1CCCCC1)c1ccc(CS(=O)Cc2ccccc2Cl)o1 (stereo not drawn)	7	.	0.2%	6%	-0.7	0.1%	10
Cc1cc(C)n2ncc(C(=O)NCc3cccnc3)c2n1	10	0.3	?	6%	0.9	-2.4%	2
COc1ccc(C(=O)Nc2ccc3c(c2)OCO3)cc1S(=O)(=O)N1CCOCC1	-3	.	1.5%	.	-0.5	0.6%	.
COc1ccc(C(=O)C2CCCN(C(=O)C3=CCCC3)C2)c(C)c1 (stereo not drawn)	-10	5.0	-2.3%	12%	0.7	-0.9%	-8
O=C(Nc1ccccc1O)c1ccc2c(c1)C(=O)N(Cc1ccco1)C2=O	24	.	1.9%	10%	-0.7	0.7%	-3
C1CCN=C(NC23CC4CC(CC(C4)C2)C3)CC1	.	3.3	.	-2%	.	.	12
O=C(N/N=C\c1c(F)c(F)c(F)c(F)c1F)c1ccc(-c2ccccc2)cc1	-8	0.0	1.7%	9%	0.3	0.7%	-4
CC(=O)c1ccc(NC(=S)N(C)C2CCN(C)CC2)cc1	-1	0.3	-1.4%	0%	0.1	2.4%	2
COC(=O)c1ccc(N2C(=O)CC(N3CCOCC3)C2=O)cc1 (stereo not drawn)	4	5.8	-1.8%	-5%	-0.8	-1.0%	6
